VDR inhibitor – Inhibitors of the vitamin D receptor (VDR): qHTS. Vitamin D3 receptor (Homo sapiens), P11473. VDR-SRC2-3 peptide fluorescence polarization, 2 h. Potency, µM, for inactives: max response, negative = inhibition, hits mostly inhibitors. actives 0.93% (n = 400,000); active means well fitted inhibition curve with a large enough effect; inconclusive means small, poorly fitted or top-dose-only effect, or another doubt; inactive means no such curve, though single readings can be large or run the other way; further: series mostly up to about 120 µM
Target sequence (P11473 whole entry, looked up): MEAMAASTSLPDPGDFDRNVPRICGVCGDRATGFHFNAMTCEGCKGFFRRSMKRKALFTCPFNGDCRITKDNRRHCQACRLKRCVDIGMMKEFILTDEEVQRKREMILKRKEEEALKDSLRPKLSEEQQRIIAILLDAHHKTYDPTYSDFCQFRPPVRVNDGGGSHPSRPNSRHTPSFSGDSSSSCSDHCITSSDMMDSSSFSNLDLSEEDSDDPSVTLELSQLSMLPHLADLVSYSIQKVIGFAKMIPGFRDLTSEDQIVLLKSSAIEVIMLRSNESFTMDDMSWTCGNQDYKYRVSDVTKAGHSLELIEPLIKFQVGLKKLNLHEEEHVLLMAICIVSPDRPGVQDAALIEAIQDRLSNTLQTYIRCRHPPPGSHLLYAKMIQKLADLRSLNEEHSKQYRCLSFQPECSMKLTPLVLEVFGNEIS
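Signal is fluorescence polarization, reporting how far test compounds block the interaction of VDR with the SRC2-3 coregulator peptide after a 2 h room-temperature incubation.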
The depositor's hits bear a star; u = inconclusive; & = joins results of further samples. On the % scale 0 is the no-effect control and ±100 the full control effect; potency means the concentration at half of the fitted maximal effect.

structure	VDR inhibitor
O=C(Nc1ccccc1)Nc1cccc(-c2cn3cccnc3n2)c1	-16.0%
O=C(CC1(O)C(=O)Nc2ccccc21)c1cccc(Br)c1 (stereo not given)	-29.1%
CN(Cc1ccccc1)CC1C2CCC(C2)C1O (stereo not given)	-9.7%
COCCOC(=O)CC1=NC(=O)CS1	11.2%
CCc1nonc1NC(=O)c1oc2ccc(C)cc2c1C	-18.1%&5.8%
COC(=O)c1ccc(OCC2NCCc3cc(OC)c(OC)cc32)cc1 (stereo not given)	-12.8%
Cc1ccc(-c2c(C#N)c(N)nc3c2CCCCC3)o1	-7.5%
O=C(CNC(=O)C1CC1)Nc1ccc(F)c(F)c1F	4.2%
CCOc1ccc(S(=O)(=O)n2nc(C)c(S(=O)(=O)N3CCOCC3)c2C)cc1	-5.9%
Cc1ccc(S(=O)(=O)N(C)c2ccccc2C(=O)N2CCCC2)cc1	-9.1%
CCN(C(=O)c1cc2c(=O)n3cccc(C)c3nc2s1)C1CCCCC1	-15.0%
NC(=O)CCC(C(=O)O)N1C(=O)c2ccc(O)cc2C1=O (stereo not given)	-4.5%
CCOC(=O)CNc1ccc(C(=O)OCC)cc1[N+](=O)[O-]	-9.9%
O=C(Nc1ccc2nc(SCC(=O)N3CCCc4ccccc43)sc2c1)c1ccccc1F	5.3%
O=C(CSc1nc(-c2ccccc2)nc2ccc(F)cc12)Nc1ccc(C(=O)O)cc1	-11.5%
O=C1NC(=O)C(CC(=O)N(Cc2ccco2)C2(C(=O)NC3CCCC3)CCCCC2)N1 (stereo not given)	-12.7%
O=[N+]([O-])c1c(NCCCO)cc(N2CCN(Cc3ccc4c(c3)OCO4)CC2)c2nonc12	-2.8%
O=C(Nc1ccc(F)cc1F)Nc1sccc1-c1nc2ccccc2s1	8.0%
CC/C(=N/NS(=O)(=O)c1ccc(Cl)cc1)c1ccc(O)cc1	1.3%
CCC(C)[C@H](NC(=O)NCc1cccnc1)C(=O)OC (stereo not given in full)	-25.6%
COC(=O)C1SCC2C(=O)N(Cc3cccc(C)c3)CC(=O)N21 (stereo not given)	3.8%
O=C(NCc1ccccc1)C(=O)Nc1nc(C23CC4CC(CC(C4)C2)C3)cs1	-5.9%
COc1cccc(C=Nc2ccc3c(c2)OCCO3)c1O	-24.0%
CCCCN(CC)CCCNC(=O)CN1C(=O)CSc2ccc(S(=O)(=O)N3CCOCC3)cc21	8.5%&4.1%
COc1ccccc1NC(=O)c1ccc(-c2nc(COc3ccc(C)cc3)c(C)o2)cc1	3.1%
COc1cccc(-n2cc(C(=O)NC(C)C)c3ccccc3c2=O)c1	-4.8%
CC(=O)Nc1ccc(S(=O)(=O)NCCC(=O)NCC2COc3ccccc3O2)cc1 (stereo not given)	5.0%
CCCCCCC1CC(CC(=O)Nc2ccc([N+](=O)[O-])cc2)C(=O)O1 (stereo not given)	1.2%
O=C(/C=C/c1ccccc1)C1=C(O)C(=O)N(CCO)C1c1ccccc1[N+](=O)[O-] (stereo not given)	-10.6%
Cc1c(C(C)CCCO)oc(=O)c2c1Oc1c(C)c(C(C)C[C@H](C)O)oc(=O)c1C2 (stereo not given in full)	12.9%

A run of entries from the list above, for reference:
structure	VDR inhibitor
O=[N+]([O-])c1c(NCCCO)cc(N2CCN(Cc3ccc4c(c3)OCO4)CC2)c2nonc12	-2.8%
O=C(Nc1ccc(F)cc1F)Nc1sccc1-c1nc2ccccc2s1	8.0%
CC/C(=N/NS(=O)(=O)c1ccc(Cl)cc1)c1ccc(O)cc1	1.3%
CCC(C)[C@H](NC(=O)NCc1cccnc1)C(=O)OC (stereo not given in full)	-25.6%

New compounds follow
structure	VDR inhibitor
CNc1c(NS(=O)(=O)c2ccc(CC(C)C)cc2)c(=O)oc2ccccc12	-0.5%
O=C(NCc1ccccc1)c1cc(-n2cnnc2)ccc1Cl	-5.1%
CN(C)C1(CNC(=O)C2CCN(S(=O)(=O)c3cc(Cl)ccc3Cl)CC2)CCCCC1	3.7%
CSc1nc2[nH]c3c(c2c2nncn12)CC(C)(C)OC3	6.0%
O=C(NC(CSCc1ccccc1)C(=O)N/N=C/c1ccc(O)cc1O)c1ccc([N+](=O)[O-])cc1 (stereo not given)	4.1%
Cc1cccc(C)c1NC(=O)CSc1nc(-c2cccs2)cc(C(F)(F)F)n1	5.3%
CCO[C@@H]1OC(C(=O)Nc2ccccc2)=C[C@H](C)[C@H]1CCCO	-15.7%
O=C(CCS(=O)(=O)c1ccc(Br)cc1)Nc1ccc(F)cc1F	0.7%
COc1ccc(C2NC(=O)N(C)C3=C2C(=O)N(c2ccccc2)C3)cc1 (stereo not given)	1.7%
CCn1c(Cc2c(C)[nH]c3ccccc23)nnc1SCC(N)=O	-20.2%
C/C(Cl)=C/Cn1c(=O)c2c(nc(Br)n2Cc2ccccc2)n(C)c1=O	-4.9%
CCC1CN(C(=O)N2CCC(C(=O)NCc3ccc(C)o3)CC2)c2cc(C)ccc2O1 (stereo not given)	-0.3%&5.5%
Cc1cccc(NC(=O)CCc2nc3sc4c(c3c(=O)[nH]2)CCCC4)n1	-9.8%
CCOc1ccccc1NC(=O)N1CCc2c(sc(C)c2CC)C1c1ccccc1 (stereo not given)	-7.0%
CCOc1ccc(CNC(=O)CCC(=O)N2Cc3cccc(OC)c3Oc3ncccc32)cc1	7.6%
COC(=O)c1[nH]c2ccccc2c1NC(=O)CN1CCC(C(N)=O)(N2CCCCC2)CC1	15.5%
Cc1ccn2c(NC3CCCC3)c(-c3cccs3)nc2c1	39.8µM*
COc1cc(NC2c3ccccc3C(=O)N2Cc2ccc3c(c2)OCO3)cc(OC)c1OC (stereo not given)	-14.6%
Cc1c(Cl)cccc1NC(=O)Nc1c[nH]c(=O)[nH]c1=O	-6.6%
COc1ccc(C(=O)Nc2cccc(/C=C/c3nc4ccccc4c(=O)[nH]3)c2)cc1	-7.7%
C=C/C(=C\C)C[C@@H](CC(=O)N[C@@H](CCC(=O)O)CC(=O)O)NC(=O)[C@@H]1CNCC[C@H]1NC(=O)C[C@@H](NC(=O)C[C@H](Cc1ccccc1)NC(=O)[C@@H]1CCCC[C@H]1N)C(C)C	12.0%
COC(=O)C(NS(C)(=O)=O)(c1c(C)[nH]c2ccccc12)C(F)(F)F (stereo not given)	4.5%
COc1cccc(C2CC(c3ccccc3OC)n3nc(N)nc3N2)c1 (stereo not given)	-22.4%
CC(=O)c1cc(C#N)c(Oc2cccc(C(F)(F)F)c2)nc1C	0.7%
COc1ccc(OCCCCN(C)Cc2ccccc2)cc1	0.5%
O=C(N[C@@H](Cc1ccccc1)C(=O)OCc1ccccc1)c1nc[nH]c1C(=O)NC(c1ccccc1)c1ccccc1	-18.0%
COc1ccc(C(=O)Nc2nccs2)cc1	4.8%
CCOC(=O)c1sc(NC(=O)c2cc3n(n2)C(C(F)(F)F)CC(c2cccs2)N3)c(C(=O)OCC)c1C (stereo not given)	-1.7%
COC(=O)c1ccccc1NC(=O)Cn1c(=O)cc(C)c2c(C)nn(-c3cccc(Cl)c3C)c21	13.7%
CC(=O)OC1CC2C(C)(C)C(=O)[C@@H]3OC3[C@@]2(C)C2CC[C@]3(C)C(=CC(=O)OC3c3ccoc3)[C@]12C (stereo not given in full)	-5.9%
O=C(Nc1ccc(Cl)c(Cl)c1)Nc1ccon1	6.0%
CC(C)C[C@@H](CC(=O)N[C@@H](CCC(=O)O)CC(=O)O)NC(=O)[C@@H]1CNCC[C@H]1NC(=O)C[C@H](CCCN)NC(=O)C[C@H](Cc1c[nH]c2ccccc12)NC(=O)[C@@H]1CCCC[C@H]1N	2.9%
O=C(C(Cc1ccccc1)n1cccc1)N1CCN(C2CCCCC2)CC1 (stereo not given)	-4.2%
CC1=CSC2=NC(C(F)(F)F)(C(F)(F)F)NC(=O)N12	-27.1%
Cn1nc(C(F)(F)F)c2cc(NC(=O)OCc3ccc(F)cc3)sc21	7.0%
COc1ccccc1-c1cc(C(F)(F)F)nc(NCc2ccco2)n1	3.5%
COc1ccccc1CNC(=O)C1CCN(C(=O)N(C)C)CC1	-14.2%
O=C(Nc1ccccc1)c1nnsc1S(=O)c1ccc(Cl)cc1 (stereo not given)	u
O=C(CN1C(=O)NC2(CCCCC2)C1=O)Nc1cccc(Cl)c1Cl	-6.4%
O=C(Nc1ccccc1)c1ccccc1NC(=O)c1ccccc1[N+](=O)[O-]	-1.1%
CCCOc1ccc(C(=O)CCC(=O)NNC(=O)Cn2nc(C)cc2C)cc1	-4.0%
CCn1c2ccccc2c2cc(NC(=O)COc3ccccc3)ccc21	12.9%
N=c1oc2ccccc2cc1-c1nc(-c2ccccc2)cs1	-2.9%
COc1cccc(C(CC(=O)NCc2ccco2)NS(=O)(=O)c2ccc(C)cc2)c1OC (stereo not given)	-1.5%
Clc1ccccc1-c1nccc(-n2ccnc2)n1	u

Among those listed so far, these have a COOH group.
structure	VDR inhibitor
NC(=O)CCC(C(=O)O)N1C(=O)c2ccc(O)cc2C1=O (stereo not given)	-4.5%
O=C(CSc1nc(-c2ccccc2)nc2ccc(F)cc12)Nc1ccc(C(=O)O)cc1	-11.5%
C=C/C(=C\C)C[C@@H](CC(=O)N[C@@H](CCC(=O)O)CC(=O)O)NC(=O)[C@@H]1CNCC[C@H]1NC(=O)C[C@@H](NC(=O)C[C@H](Cc1ccccc1)NC(=O)[C@@H]1CCCC[C@H]1N)C(C)C	12.0%
CC(C)C[C@@H](CC(=O)N[C@@H](CCC(=O)O)CC(=O)O)NC(=O)[C@@H]1CNCC[C@H]1NC(=O)C[C@H](CCCN)NC(=O)C[C@H](Cc1c[nH]c2ccccc12)NC(=O)[C@@H]1CCCC[C@H]1N	2.9%

(continued)
structure	VDR inhibitor
c1ccc(Nc2ccccn2)cc1	u
CCCCNC(=O)Nc1cc(C(F)(F)F)c[nH]c1=O	-7.7%
Cc1onc(-c2ccccc2)c1C(=O)N1CCN(c2ccccc2F)CC1	9.8%
COc1ccccc1OCCNc1cc(N2CCOCC2)ccc1[N+](=O)[O-]	4.1%
CCC(=O)N1N=C(c2ccccc2)CC1c1ccccc1 (stereo not given)	-23.5%
Cc1ccc(S(=O)(=O)c2nc(-c3cccs3)oc2SCc2ccc(F)cc2)cc1	-13.8%
CCOC(=O)Nc1ccc2c(c1)N(C(=O)CN1CCN3CCCC3C1)c1ccccc1CC2 (stereo not given)	4.5%
COc1ccc([N+](=O)[O-])cc1-n1cnnn1	6.1%
CC(NC(=O)COc1ncnc2cc([N+](=O)[O-])ccc12)c1ccccc1 (stereo not given)	-16.6%
Cc1ccc(NC(=O)CSc2nc3ccccc3c(=O)n2CC2CCCO2)cc1 (stereo not given)	4.8%
Cc1c(C(=O)NCc2ccc(F)cc2)sc2nc(-c3ccccc3)cn12	11.0%
COC(=O)c1c(NC(=O)c2cc(=O)c3ccc(C)c(C)c3o2)sc2c1CCCC2	8.6%
CC(=O)NC(c1ccccc1)c1cccnc1 (stereo not given)	17.6%
CC1(c2ccc(OC(F)F)cc2)NC(=O)N(CC(=O)Nc2ccc(F)cc2)C1=O (stereo not given)	13.9%
O=C(CSc1nnnn1C1CCCCC1)N1CCc2ccccc21	13.6%
COc1cccc(-c2nc(SCC(=O)NCC3CCCO3)c(-c3ccc(F)cc3)[nH]2)c1 (stereo not given)	2.0%
CN1CCc2nc3sc(C(=O)NCc4ccccc4)c(N)c3cc2C1	22.6%
CC(=O)c1ccc(N2CCN(C(=O)c3nn(C)c4c3CS(=O)(=O)c3ccccc3-4)CC2)cc1	u
CC1=CC(C)C(COC(=O)CN2CCCCC2)C(C)C1 (stereo not given)	-13.1%
COCCNC(=O)C(=O)Nc1cccc(Br)c1	-3.9%
CCn1c(-c2sc(-c3ccccc3)nc2C)n[nH]c1=S	-10.7%
CS(=O)(=O)c1cccc(C(=O)OCCCC(=O)c2ccccc2)c1	-8.8%
O=C(CNC(=O)c1ccccc1F)OCC(=O)c1ccc(Cl)s1	3.1%
COc1cccc(CNc2ncn[nH]2)c1OCc1ccc(F)cc1	-1.2%
O=C(Nc1cccc(NC(=O)c2ccccc2[N+](=O)[O-])n1)c1ccccc1[N+](=O)[O-]	-10.3%
CCn1c(SCC(=O)Nc2ccccc2)nnc1C1CCCCC1	2.2%
O=C1C(C=NCc2ccco2)=C(O)c2ccccc21	6.7%
COC(=O)c1cnn(-c2nc(-c3ccccc3)cs2)c1N	-5.1%
CC(C)N(C(=S)Nc1cc(S(=O)(=O)N2CCOCC2)ccc1Cl)c1ccccc1	-24.1%
Cc1ccc(OCC(=O)NC(=S)Nc2cccc(NC(=O)c3ccccc3)c2)cc1	-14.6%
CCN(CC)CCOc1nnc(-c2ccc(OC)cc2)c2ccccc12	0.2%
Clc1ccsc1-c1csc(-c2cccnc2)n1	-2.2%
Cc1ccc(C)c(N2CCN(C(=O)c3cccn3-c3nnc(N4CCCCC4)s3)CC2)c1	5.6%
Oc1ccc(N=Cc2sc3ccccc3c2Cl)cc1	-18.8%
O=c1cc(-c2ccc(O)cc2)oc2cc(OC3OC(CO)C(O)C(O)C3O)c(C3OC(CO)C(O)C(O)C3O)c(O)c12 (stereo not given)	1.2%
CC(C)CN1CCC(=O)N(CCOc2ccccc2)CC1	5.0%
COc1cccc(CNC(=O)c2ccc3c(c2)c(C)c(C)n3Cc2ccccc2)c1OC	2.4%
CC1CC(C)CN(c2oc(-c3ccco3)nc2C#N)C1 (stereo not given)	-5.3%
CCN(C(=O)COC(=O)CNC(=O)c1sc2ccccc2c1Cl)C1CCCCC1	-19.8%
COc1ccc(NC(=O)c2ccc3ccccc3n2)cc1S(=O)(=O)Nc1ccccc1Cl	3.7%
CCCc1cc(=O)[nH]c(SCC(=O)c2cc(C)n(CCC)c2C)n1	9.7%
CCCCn1c(=N)n(CCOc2ccc(C)cc2)c2ccccc21	2.2%

Bioassay records deposited in PubChem BioAssay by National Center for Advancing Translational Sciences (NCATS).

A portion of the library; rates above refer to the full screens.
